Compound activity as filed in PubChem.
HSD17B inhib: blocks hydroxysteroid 17-beta dehydrogenase activity | recombinant HSD17B10, NADH fluorescence kinetic; many of its hits are not listed in these tables | Potency, µM (highest dose often 57.1 µM), inactives show at the top dose activity change, negative = inhibition, usual class: inhibitors | Q99714 | 75,000 tested, 7.6% active | AID 893; active means well fitted inhibition curve with a large enough effect; inconclusive means small, poorly fitted or top-dose-only effect; inactive means no such curve, though single readings can be large or run the other way;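 further: the protocol describes HADH2 (HSD17B10) and not the HSD17B4 of the title; nearly all actives have a fitted effect of over 70% in size; most hits overshoot -100% by far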
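20 nM HADH2, pH 9.0 Tris/Tween; cpd preinc 15 min RT; start w/ 1 mM NAD+ + 90 uM b-hydroxybutyryl-CoA; kinetic fluor ex360/em450 q30s x 4 min; delta last-first.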
Starred values were filed as active, the others as inactive; ? = inconclusive; [ ] = remark or other dose. On the % scale 0 is the no-effect control and ±100 the full control effect; potency means the concentration at half of the fitted maximal effect. Not all compounds are listed. The share of hits here may be higher or lower than overall.

SMILES | HSD17B inhib
Cc1ccc(C)c(/C(O)=C2/C(=O)C(=O)N(CCN3CCOCC3)C2c2ccco2)c1 (stereo not drawn) | -13%
C#CCSc1nnc(-c2c[nH]c3ccccc23)n1C | 0%
Cc1onc(COc2ccccc2O)c1Br | -6%
O=C1CCC(c2ccccc2)=NN1c1nc2ccccc2s1 | 4%[11.4 µM]
COc1ccc2c(c1)SC1=NCCS(=O)(=O)N12 | 5%
CO/N=C(\C(=O)N[C@@H]1C(=O)N2C(C(=O)O)=C(CSc3nc(=O)c(O)nn3C)CS[C@@H]12)c1csc(N)n1 | -17%
CCOC(=O)C(Cc1ccccc1)NC(=O)Cn1nnc(-c2ccccc2)n1 (stereo not drawn) | 4%
O=C(NCCC1=CCCCC1)C1CCCN(S(=O)(=O)c2cccc3cccnc23)C1 (stereo not drawn) | -1%
CCCCOCCCNC1=NCCCCC1 | 4%
O=C(CSc1nnnn1Cc1ccccc1)NCC(=O)c1ccccc1 | -4%
CCOC(=O)c1c(NC(=O)c2cccs2)sc(C(=O)N2CCOCC2)c1C | 1%
c1ccc(Cn2ccnc2SCc2nnc(-c3ccccc3)o2)cc1 | 3%
O=C(CSc1nc2ccccc2c2nc3ccccc3n12)NCc1ccco1 | -16%
CCN(CCO)C[C@H]1CCC[C@H]2CCCC[C@@H]21 | 4%[11.4 µM]
CCCCn1nnc(NC(=O)c2sc3cc(Cl)ccc3c2Cl)n1 | 0%
COc1ccc(OC)c(S(=O)(=O)N(C)CC(=O)Nc2cc(Cl)ccc2OC)c1 | -20%
CCOC(=O)c1ccc(NC(=O)NCc2ccncc2)cc1 | 7%
O=C(c1ccccc1-c1ccccc1)N1CCCC1 | 17%
CCn1ncc(Cl)c1C(=O)Nc1cc(Cl)ccc1Cl | -1%
Cn1c(N2CCC(C(N)=O)CC2)nc2c1c(=O)n(Cc1cccc(Br)c1)c(=O)n2C | -2%
COc1cccc(Nc2ncc3nc(CCc4ccccc4)c(=O)n(C)c3n2)c1 | 44%[activator]
CCc1nc2ccccc2n(CCOCCn2c(=O)c(CC)nc3ccccc32)c1=O | 11%
CSc1ccc(-c2nnn(Cc3ccccn3)n2)cc1 | 4%
O=C(O)C1CC=CCC1C(=O)Nc1cccc(Cl)c1Cl (stereo not drawn) | 0%
Nn1c(COc2ccccc2)nnc1SCC(=O)O | ?
Cc1ccccc1-n1c(SCC(=O)N2CCN(c3ccccc3)CC2)nnc1-c1ccncc1 | -5%
O=C(Cn1nc(Cc2cccnc2)c2ccccc2c1=O)N1CCN(C(=O)c2ccco2)CC1 | 11%
CCc1ccc(N2CCCn3c2nc2c3c(=O)n(CCN3CCOCC3)c(=O)n2C)cc1 | 13%
COc1ccccc1-c1cc(C(=O)Nc2cc(C)on2)no1 | -21%
COc1ccc(C(C#N)C2(C)OCCO2)cc1OC (stereo not drawn) | 8%
COC(=O)C1=C(C)NC(C)=C(C(=O)OC)C1c1cc2cc(C)ccc2[nH]c1=O | 32µM*
Cc1nc2cc(-n3ccc(=O)cc3)ccc2n1-c1ccccc1 | 18%
COc1cccc(N(CC(=O)NCc2cccnc2)S(C)(=O)=O)c1 | -6%
CCC(=O)Nc1nnc(CSCc2ccccc2)s1 | 2%
CC(C)(C)c1nnc(NC(=O)CN2C(=O)C3C4C=CC(C4)C3C2=O)s1 (stereo not drawn) | -3%
CCN(c1cccc(C(F)(F)F)c1)S(=O)(=O)c1ccc2c(c1)CCN2C(=O)C1CC1 | -4%
CC(=O)OCCC(C)CCC=C(C)C (stereo not drawn) | 1%
Cc1cc(-n2nc(C)cc2C)nc(NS(=O)(=O)c2ccccc2)n1 | 0%
COC(=O)c1ccccc1NC(=O)C1CCCN(S(C)(=O)=O)C1 (stereo not drawn) | -22%
CCCNC(=O)OC[C@@H]1O[C@H](CCON=C(C)C)C=C[C@@H]1Oc1ccc(OC)cc1 | 3%[11.4 µM]
O=C(Oc1ccc(-n2cnnn2)cc1)c1ccco1 | 1%
c1nc(NC2CC2)c2cc(-c3ccoc3)ccc2n1 | ?
NC(=O)CS(=O)(=O)c1nc2ccccc2n1CC(=O)N1CCCCC1 | 7%
COc1ccc(S(=O)(=O)NCCCCCC(=O)NCCCN2CCOCC2)cc1 | 0%
COC(=O)c1ccc2c(=O)n(CCO)c(=S)[nH]c2c1 | -14%
COc1cccc(NC(=O)/C=C\c2ccc(Cl)cc2)c1 | 8%
CCC(C)(C(=O)Nc1ccc2c(c1)OCCO2)N(C(C)=O)c1ccc(C(N)=O)cc1 (stereo not drawn) | 14%
COC(=O)c1sc(NC(=O)C2CCCO2)c(C(=O)OC)c1C (stereo not drawn) | 2%
O=C(NCCNC(=O)C(F)(F)F)c1ccncc1 | 3%
CCn1cc(Cl)c(C(=O)Nc2nc3ccccc3n2CCN2CCCCC2)n1 | -7%
CC1(C)CC(N2CN(C3CCCCC3)CC2=O)CC(C)(C)N1 | 4%
COc1cc(CC(=O)Oc2ccc3c(c2)OCO3)cc(OC)c1OC | -5%
COc1ccc(Cl)cc1N1C(=O)C2CCCN2C1c1ccc(F)cc1 (stereo not drawn) | 1%
CN(C)CCCOC1C(C(O)CO)OC2OC(C)(C)O[C@@H]21 (stereo partly drawn) | 3%
CCCC(c1nnnn1Cc1cccs1)N1CCN(C2CCCC2)CC1 (stereo not drawn) | 7%
Cc1ccc(CCNC(=O)c2nnn(-c3cccc(C)c3)c2N)cc1 | -2%
O=C1CC(c2ccco2)CC(O)=C1C=NCCN1CCNCC1 (stereo not drawn) | 1%
Cc1cccc(-n2ncc3c(N)ncnc32)c1 | ?
CCOc1ccc(CCNC(=O)CCc2nc(-c3ccc(OC)cc3)no2)cc1OCC | 6%
CCCc1nc(C(C)(C)O)c(C(=O)OCc2oc(=O)oc2C)n1Cc1ccc(-c2ccccc2-c2nn[nH]n2)cc1 | 13%
(continued)
SMILES | HSD17B inhib
O=C1C(Cl)=C(Nc2ccccc2O)C(=O)N1c1ccccc1 | -14%
O=C(CCN1C(=O)C2C3C=CC(C3)C2C1=O)N1CCN(c2ccccc2Cl)CC1 (stereo not drawn) | 3%
c1ccc(Cn2nnnc2CN2CCN(Cc3ccc4c(c3)OCO4)CC2)cc1 | 9%
COc1ccc(Nc2cc(C)nc3nc(C)nn23)cc1Cl | 2%
c1ccc(SCc2nc(-c3cccnc3)no2)cc1 | -6%
CC(C)C(c1nnnn1Cc1ccccc1)N1CCc2ccccc2C1 (stereo not drawn) | -7%
CC(=O)Nc1cc(-c2nn(CC(=O)N3CCCCC3)c(=O)c3ccccc23)ccc1N1CCOCC1 | 5%
O=C(CCNC(=O)Cn1ccc2ccccc2c1=O)NCCCN1CCN(c2ccccc2F)CC1 | 3%
O=C(C1CCC1)N1CCc2cc(S(=O)(=O)Nc3ccc4c(c3)OCO4)ccc21 | -18%
Cc1ccnc2nc(C(=O)N3CCN(S(=O)(=O)c4ccccc4)CC3)nn12 | 0%
CO/N=C1/[C@H]2O[C@@H]2[C@@H](O)[C@H]2[C@H]1CCn1c(=O)n(-c3ccccc3)c(=O)n12 | -4%[11.4 µM]
COc1ccc(CNC(=O)c2cc(-c3ccco3)on2)cc1 | -2%
Cc1cc(C)c2c(c1)-c1c(ssc1=S)C(C)(C)N2C(=O)CSc1nncn1C | -23%
COC(=O)Cc1c(C)c2ccc(OCC(=O)N3CCOCC3)cc2oc1=O | 25µM*
O=C(NCCN1CCN(c2ccccc2F)CC1)c1cccn2c(=O)c3ccccc3nc12 | 3%
CC(C)c1ccccc1N1CC(C(=O)O)CC1=O (stereo not drawn) | 13%
C=COCCNC(=O)C1CC(=O)N(c2ccc(C)cc2)C1 (stereo not drawn) | 12%
COc1ccc(C(=O)n2nc(-c3ccc(C)cc3)nc2N)cc1OC | ?
O=C(CN1CCOCC1)Nc1ncc(Br)cc1Br | -15%
CCCCN(C(=O)NC(=O)Nc1c(C)cc(C)cc1C)S(C)(=O)=O | 7%
CCOc1cc(C2C(C(=O)O)c3cc(OCC)c(OCC)cc3C(=O)N2C)ccc1O (stereo not drawn) | -11%
CC(=O)NC(CCS(C)(=O)=O)C(=O)Nc1ccc(Cl)c(Cl)c1 (stereo not drawn) | 1%
COC(=O)c1ccc(-c2nc(O)c3cnccn23)cc1 | -13%
O=C(CN(Cc1ccc(F)cc1)C(=O)CCC(=O)Nc1ccccn1)NCc1ccco1 | 0%
CCc1ccccc1NC(=O)CC1S/C(=N\c2nccs2)N(CC)C1=O (stereo not drawn) | 4%
CC(C)CO/N=C1/C[C@@H](O)[C@@H](O)[C@@H]2[C@H]3C(=O)N(c4ccc(F)cc4F)C(=O)[C@@H]3CC[C@H]12 | 5%[11.4 µM]
COc1ccc2[nH]cc(CCNc3nc(-c4cccc(C#N)c4)nc4ccccc34)c2c1 | -3%
CC(C)C(=O)Nc1cccc(NC(=O)c2cc3ccccc3o2)c1 | -3%
CC(=O)Nc1ccccc1OCC(=O)c1ccc2c(c1)OCO2 | 1%
CC(NC(=O)c1noc2c1CCCC2)c1ccccc1 (stereo not drawn) | -7%
Cn1c(C(=O)NCCc2ccsc2)cc2c(=O)n(C)c3ccccc3c21 | ?
CC(C)c1ccc(NC(=O)c2cccnc2)cc1 | -4%
COc1ccc(OCCSc2nc3ccccc3n2CC(=O)O)cc1 | -5%
O=C(O)CN(c1ccc(F)cc1)S(=O)(=O)c1ccc2c(c1)OCCO2 | 1%
Cc1cc(Nc2ccccc2)n(CCOC(=O)COc2ccccc2)n1 | 0%
Cc1ccc(-n2c(SCc3nnc4n3CCC4)nnc2-c2ccccc2)cc1 | -1%
COc1cc(-c2coc3cc(OCc4ccccc4)c(OC)c(O)c3c2=O)cc(O)c1OC | -4%
COC(=O)NC(c1cccc(F)c1)C(C(C)=O)C(=O)OC (stereo not drawn) | 3%[11.4 µM]
COc1cccc(-c2nnc(N(C)C(=O)c3ccno3)s2)c1 | ?
O=C(O)Cc1c[nH]c2ccc(O)cc12 | 11%
CCC(Sc1nc2n[nH]c(C)c2c(=N)n1-c1cccc(Cl)c1C)C(=O)N(CC)CC (stereo not drawn) | 5%
CC1=CC(C)(C)N2C(=O)C3(C(C#N)=C(N)OC4=C3C(=O)CCC4)c3c(C)c(C)cc1c32 (stereo not drawn) | 7%
CCCCNC(=O)CC1N=C2c3ccccc3N=C(SCC(=O)Nc3cccc(OC)c3)N2C1=O (stereo not drawn) | -21%
CS(=O)(=O)N(CC(O)Cn1c2ccccc2c2ccccc21)c1ccccc1 (stereo not drawn) | -2%
O=CN1CCN(C(C(=O)NC2CCCC2)c2ccc(Cl)cc2)CC1 (stereo not drawn) | 2%
c1cc2c(c(NCc3ccncc3)c1)CCCC2 | 2%
N=C1C(c2nc3ccccc3c(=O)[nH]2)=C(O)CN1CCc1ccccc1 | 32µM*
COc1ccc(C)cc1NC(=O)CSc1nnc(COc2ccccc2)n1Cc1ccco1 | -21%
CC(C)NC(=O)N1CCC2(CC1)CCN(S(C)(=O)=O)CC2 | 6%
O=C(CCN1C(=O)C2(OCCO2)c2ccccc21)c1ccccc1 | 4%
COc1ccc(-n2c(SC3CCOC3=O)nc3ccccc3c2=O)cc1OC (stereo not drawn) | -19%
CCOC(=O)c1c(N)c(C#N)nn1-c1ccccc1C(=O)OC | 6%
O=C(CCC(=O)N(c1cccc(F)c1)C(C(=O)NC1CCCC1)c1ccncc1)Nc1cccnc1 (stereo not drawn) | 10%
Cn1c(=O)c2c(nc(NCC3CCCO3)n2C)n(C)c1=O (stereo not drawn) | 2%
CC(=O)N1CCN=C1SCc1ccccc1F | 2%
O=C(NCCN1CCOCC1)c1ccc2c(c1)N(Cc1ccc(F)cc1)C(=O)CS2 | -1%
Cc1nn(-c2ccccc2)c2c1C1(C(=O)N(C)c3ccccc31)C(C#N)=C(N)O2 (stereo not drawn) | -5%
O=C(CSc1nc2c(cnn2-c2ccc(F)cc2)c(=O)[nH]1)N1CCCCCC1 | -4%
Cc1nn(Cc2ccccc2)c(Cl)c1C(=O)OCc1nnc(-c2ccc(Cl)cc2)o1 | 9%
O=C(c1cnccn1)N1CCC2(CC1)CCN(c1ncccn1)CC2 | ?
CNc1ccccc1-n1ccc(-c2ccccc2)n1 | 2%
Cc1cccc(CCNC(=O)c2nnc(Cc3ccc(Cl)cc3)o2)c1 | 3%

Already shown: an excerpt of the list.
SMILES | HSD17B inhib
N=C1C(c2nc3ccccc3c(=O)[nH]2)=C(O)CN1CCc1ccccc1 | 32µM*
COc1ccc(C)cc1NC(=O)CSc1nnc(COc2ccccc2)n1Cc1ccco1 | -21%
CC(C)NC(=O)N1CCC2(CC1)CCN(S(C)(=O)=O)CC2 | 6%
O=C(CCN1C(=O)C2(OCCO2)c2ccccc21)c1ccccc1 | 4%
COc1ccc(-n2c(SC3CCOC3=O)nc3ccccc3c2=O)cc1OC (stereo not drawn) | -19%
CCOC(=O)c1c(N)c(C#N)nn1-c1ccccc1C(=O)OC | 6%
O=C(CCC(=O)N(c1cccc(F)c1)C(C(=O)NC1CCCC1)c1ccncc1)Nc1cccnc1 (stereo not drawn) | 10%
Cn1c(=O)c2c(nc(NCC3CCCO3)n2C)n(C)c1=O (stereo not drawn) | 2%
CC(=O)N1CCN=C1SCc1ccccc1F | 2%
O=C(NCCN1CCOCC1)c1ccc2c(c1)N(Cc1ccc(F)cc1)C(=O)CS2 | -1%
Cc1nn(-c2ccccc2)c2c1C1(C(=O)N(C)c3ccccc31)C(C#N)=C(N)O2 (stereo not drawn) | -5%
O=C(CSc1nc2c(cnn2-c2ccc(F)cc2)c(=O)[nH]1)N1CCCCCC1 | -4%
Cc1nn(Cc2ccccc2)c(Cl)c1C(=O)OCc1nnc(-c2ccc(Cl)cc2)o1 | 9%
O=C(c1cnccn1)N1CCC2(CC1)CCN(c1ncccn1)CC2 | ?
CNc1ccccc1-n1ccc(-c2ccccc2)n1 | 2%
Cc1cccc(CCNC(=O)c2nnc(Cc3ccc(Cl)cc3)o2)c1 | 3%
